ugtP null kill = growth inhibition of S. aureus ugtP deletion strain. S. aureus RN4220 ugtP deletion, OD600 growth, 16 h; some inactives read as strong as hits. growth inhibition, % (concentration not given with the values). 330,000 compounds, 0.54% hits. AID 1259309;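 active = z-score under -3 and OD600 up to 0.15 on both plates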;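 also: plate controls were untreated wells for no effect and antibiotic for full effect; wells of about 80 µL received 100 nL stock; the first replicate is given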
PrP 5UTR inh = suppresses PrP 5' UTR mRNA reporter expression | cell-based PrP 5' UTR mRNA reporter, plate reader | inhibition, % (test concentration not listed) | 340,000 compounds, 0.35% hits | AID 488862;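 active = every replicate at 50% or more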;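 also: 0 = median of the neutral control wells; tested in H4 reporter cells; numbers are from one replicate; inactives centre near -14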
Mtb hypoxia rep = inhibitors of hypoxia-regulated fluorescent reporter in Mycobacterium tuberculosis. 300,000 compounds, 0.1% hits. M. tuberculosis hypoxia-regulated fluorescent reporter, fluorescence. fluorescence inhibition, % (no concentration beside the values);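 active = 35 to 45% if threefold the growth effect, above 45% if 1.5-fold the growth effect; inactive = the rest, general growth blockers included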;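 also: wells of about 50 µL received 100 nL stock; 0% = vehicle wells and 100% = reference inhibitor wells; whole bacteria with a GFP reporter of the hypoxia response; strong numbers were not always called active; many hits fall short of the cut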
Bead autofluor = counter-screen for toxin protease inhibitors: compound fluorescence. compound autofluorescence counterscreen, microsphere flow cytometry; stronger effect = higher value. fluorescence intensity (concentration not given with the values). 360,000 compounds, 3.1% hits;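 active = at least 3 SD above the mean of all compounds, about 16000 in these data; inconclusive = too few beads counted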;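 also: 100 nL of 1 mM stock went into each well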
BJeLR lethal = kills HRASV12-expressing BJeLR cells. AID 1554. 300,000 compounds, 0.17% hits. BJeLR (HRASV12) viability, CellTiter-Glo ATP luminescence, 48 h; reference of the scale not given here. inhibition, % (test concentration not listed);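 active = replicate mean above 50%; inconclusive = above 50% but judged a plate artefact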;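 also: 50 nL library stock added to about 25 µL; numbers are from one replicate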
RN4220 kill = kills Staphylococcus aureus RN4220; S. aureus RN4220 growth, OD600, 16 h; inhibition, % (no concentration beside the values); 330,000 compounds, 0.33% hits; AID 1259311;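 active = z-score of -3 or lower and OD600 up to 0.18 on both plates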;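 also: plate controls were untreated cells for no effect and reference antibiotic for full effect; stock transfer was 100 nL into about 80 µL; one replicate is shown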
Mtb hypoxia rep growth = further read-out of Mtb hypoxia rep, marked with its call; growth inhibition, %; measured here: M. tuberculosis growth (absorbance);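 0% = vehicle and 100% = reference antibiotic; read after six days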
Active calls of the source: *; ? = inconclusive; . = no result given.

1. COc1ccc(Cl)cc1S(=O)(=O)N1CCN=C1c1ccccc1
2. CCC(C)Sc1ccc(C2C3C(=O)N(C)C(=O)C3[C@]3(C(=O)OC)CCCCN23)cc1OC (some centres not stated)
3. Cc1ccc(NC(=O)CSc2nnc(-c3ccncc3)n2C)cc1C
4. COc1ccccc1OCCNC(=O)C1CC(=O)N(Cc2ccc(C)cc2)C1 (configuration not stated)
5. Cc1ccc2c(c1)CCCN2CC(=O)Nc1cc(S(=O)(=O)N2CCCC2)ccc1Cl
6. CCN(CC)CCCNC(=O)CCC(=O)Nc1ccc2nc(N3CCC(C)CC3)cc(C)c2c1
7. CC(=O)NCCNC(=O)CCNC(=O)c1ccc(Cl)cc1
8. CSCCC(NC(N)=O)C(=O)Nc1ccc(F)c(Cl)c1 (configuration not stated)
assay / compound	1	2	3	4	5	6	7	8
ugtP null kill	-3	9	-3	1	7	3	6	-3
PrP 5UTR inh	-12	.	0	-14	-3	.	-6	-13
Mtb hypoxia rep	2	22	3	-2	-4	-3	.	-13
Mtb hypoxia rep growth	0	12	14	-2	-4	4	.	4
Bead autofluor	4482	.	20661*	?	.	4837	4078	?
BJeLR lethal	4	.	-3	-1	.	1	6	-7
RN4220 kill	3.8	6.6	6.4	0.0	-3.4	3.2	6.3	4.3

9. O=C(CN1C(=O)NC(c2ccccc2)(c2ccccc2)C1=O)NC1CCCC1
10. Cc1ccccc1NS(=O)(=O)c1ccc(Cl)cc1
11. COc1ccc(-c2oc(NC(=O)CSc3nncn3C)c(C#N)c2-c2ccc(OC)cc2)cc1
12. Cc1cc(C)c(OCCOCCN2CCCC2)c(C)c1
13. CC(C)(C)NC(=O)CN(C(=O)C(=O)Nc1ccc2c(c1)OCCO2)C1CC1
14. CCCn1nc(C(=O)OCC(=O)Nc2cccc(OC)c2)c2ccccc2c1=O
15. C/C=C(\C)CN1CCCC(N(C)CCc2ccc(OC)c(OC)c2)C1 (configuration not stated)
16. CC(C)(C)OC(=O)N1CCC(C(=O)N[C@H](C(=O)O)c2ccccc2)(c2ccccc2)CC1
assay / compound	9	10	11	12	13	14	15	16
ugtP null kill	-2	1	12	11	7	0	0	2
PrP 5UTR inh	-3	-30	-15	-24	-11	-21	1	-17
Mtb hypoxia rep	5	4	.	24	8	-1	-4	3
Mtb hypoxia rep growth	-2	0	.	14	5	-1	8	-1
Bead autofluor	.	3368	5133	6207	3312	4771	4153	3798
BJeLR lethal	.	0	-1	-3	-3	-2	-5	0
RN4220 kill	-0.4	11	0.1	1.9	-0.9	6.8	-1.6	2.0

An excerpt from above in order of heavy-atom count, high to low.
11. COc1ccc(-c2oc(NC(=O)CSc3nncn3C)c(C#N)c2-c2ccc(OC)cc2)cc1
16. CC(C)(C)OC(=O)N1CCC(C(=O)N[C@H](C(=O)O)c2ccccc2)(c2ccccc2)CC1
14. CCCn1nc(C(=O)OCC(=O)Nc2cccc(OC)c2)c2ccccc2c1=O
12. Cc1cc(C)c(OCCOCCN2CCCC2)c(C)c1
assay / compound	11	16	14	12
ugtP null kill	12	2	0	11
PrP 5UTR inh	-15	-17	-21	-24
Mtb hypoxia rep	.	3	-1	24
Mtb hypoxia rep growth	.	-1	-1	14
Bead autofluor	5133	3798	4771	6207
BJeLR lethal	-1	0	-2	-3
RN4220 kill	0.1	2.0	6.8	1.9

Remaining list, next part:
17. CC(/C=C/c1ccccc1)=NNC(=O)CNC(=O)c1ccccc1Cl
18. Cc1cccc(C=Nn2c(-c3ccccc3)n[nH]c2=S)c1O
19. COc1ccccc1C1CC(=O)NC(C)=C1C(=O)OCC1CCCO1 (configuration not stated)
20. Cc1cc(C=NNC(=O)c2cccs2)c(C)n1-c1cnccn1
21. COc1ccc(CCN(C)C(=O)CSc2nnnn2C)cc1OC
22. O=C(CC1Nc2ccccc2NC1=O)Nc1ccccc1NC(=O)CC1Nc2ccccc2NC1=O (configuration not stated)
23. C/C(=N\NC(=O)c1c(Br)c(C)nn1C)c1ccc(NC(=O)c2ccoc2C)cc1
24. CCOC(=O)Cc1c(C)nc2cc(-c3ccc(C(C)(C)C)cc3)[nH]n2c1=O
assay / compound	17	18	19	20	21	22	23	24
ugtP null kill	6	-3	-3	-1	1	2	.	7
PrP 5UTR inh	.	.	7	.	-10	.	-38	-18
Mtb hypoxia rep	13	1	.	3	2	-1	.	4
Mtb hypoxia rep growth	-2	-10	.	5	9	16	.	7
Bead autofluor	.	.	2821	.	4329	.	2676	9652
BJeLR lethal	.	.	3	.	2	-3	3	-11
RN4220 kill	-0.2	8.9	2.1	1.1	2.4	10	.	5.2

25. Brc1ccc(OCCOCCN2CCOCC2)cc1
26. Nn1c(Cc2cccc3ccccc23)nnc1SCC(=O)NC1CCS(=O)(=O)C1 (configuration not stated)
27. COCCN(CCOC)C(=O)C1CCCN(S(=O)(=O)c2ccc(NC(=O)OC)cc2)C1 (configuration not stated)
28. N/C(=N\O)c1ccc(Oc2ccccc2Cl)c([N+](=O)[O-])c1
29. CCCOc1ccc(C(=O)CCC(=O)Nc2ccc(N3CCN(C)CC3)cc2)cc1
30. CCOC(=O)N1CCC(NC(=O)C2CCCCN2S(=O)(=O)c2ccc(F)cc2)CC1 (configuration not stated)
31. CC(C)CN(C(=O)CCC(=O)OC(C)C(=O)Nc1cccc(C#N)c1)c1c(N)n(CC(C)C)c(=O)[nH]c1=O (configuration not stated)
32. Cc1cc(C)cc(C(=O)Oc2cc(C)[nH]c(=O)c2[N+](=O)[O-])c1
assay / compound	25	26	27	28	29	30	31	32
ugtP null kill	8	6	4	.	2	-2	1	-3
PrP 5UTR inh	-5	-9	-20	-14	-8	-11	-7	-18
Mtb hypoxia rep	12	8	4	.	3	-2	0	-5
Mtb hypoxia rep growth	12	6	-1	.	1	-3	3	-4
Bead autofluor	8743	3191	3420	?	3243	5241	5968	5130
BJeLR lethal	0	-3	-15	1	.	2	-1	-1
RN4220 kill	5.7	6.3	0.1	.	2.0	1.2	0.0	4.8

33. NC(=S)NC(c1ccccc1)c1ccncc1 (configuration not stated)
34. Cc1ccc(C(=O)NNC(=O)COc2ccc(Cl)cc2C)o1
35. NNc1ccc(Cl)nn1
36. CC(C)(CNC(=O)CNC(=O)C1CCCCC1)N1CCOCC1
37. O=C(Nc1nnc(-c2cccc(F)c2)s1)Nc1ccccc1F
38. Cc1nnc(SCc2cccc(Oc3ccccc3)c2)n1N
39. Cc1ccc(S(=O)(=O)CCC(=O)Nc2nnc(-c3ccco3)o2)cc1
40. O=C(O)COc1ccc(C=NNC(=O)c2cn(-c3ccccc3)nc2-c2ccccc2)cc1
assay / compound	33	34	35	36	37	38	39	40
ugtP null kill	5	2	-1	6	4	4	8	1
PrP 5UTR inh	4	5	-12	-15	-35	-9	-13	.
Mtb hypoxia rep	6	0	-5	3	-5	3	5	6
Mtb hypoxia rep growth	9	1	-6	11	-3	-1	-2	10
Bead autofluor	.	?	6100	8657	2019	9906	4266	.
BJeLR lethal	-1	.	-7	.	3	4	7	.
RN4220 kill	3.7	3.7	0.9	0.0	3.1	4.9	5.2	4.1

41. CN(C)S(=O)(=O)c1ccc(C(=O)Nc2cccnc2)cc1
42. O=C(O)CCC(=O)N1CCN(c2cccc(Cl)c2)CC1
43. CCCS(=O)(=O)c1c(S(=O)(=O)CCC)c2cnccn2c1C(=O)c1ccc(CC)cc1
44. Cc1cc(-c2c(C(=O)N3CCOCC3)c(C)nn2-c2ccccc2)no1
45. COCc1ccc([C@@H]2C[C@H]3CN(Cc4ccccc4C)C(=O)[C@]34CCCN24)o1
46. COc1cc(C2c3[nH]c4ccccc4c3C[C@H]3C(=O)N(CCO)CC(=O)N23)cc(OC)c1OC (some centres not stated)
47. CCOC(=O)c1c(NC(=O)CSc2ncnc3ccccc23)sc(C)c1C
48. O=C(Cc1cccs1)N1CCCC(c2nc3c(nnn3Cc3ccc(F)cc3)c(=O)[nH]2)C1 (configuration not stated)
assay / compound	41	42	43	44	45	46	47	48
ugtP null kill	-9	3	-9	2	6	-3	44	9
PrP 5UTR inh	-21	-9	-47	-3	-28	-17	-30	-7
Mtb hypoxia rep	.	.	5	16	-5	12	13	4
Mtb hypoxia rep growth	.	.	2	-5	-4	1	9	10
Bead autofluor	2686	4396	3344	3397	5119	4267	2506	15568
BJeLR lethal	3	1	-5	-9	7	3	-3	-13
RN4220 kill	-3.6	-2.2	-11	1.9	2.0	-1.6	5.1	3.8

49. CC1CCCCC1NC(=O)CCNS(=O)(=O)c1ccc(Cl)cc1 (configuration not stated)
50. COc1ccc(OC)c(C(c2nnnn2C2CCCC2)N2CCN(c3ccccc3)CC2)c1 (configuration not stated)
51. CCN1C(=O)CC(N2CCN(C(c3ccccc3)c3ccccc3)CC2)C1=O (configuration not stated)
52. O=C1OC(c2ccccc2)(c2cc(Br)ccc2O)c2ccccc21 (configuration not stated)
53. CC(C)C[C@H](NC(=O)c1nc[nH]c1C(=O)N[C@@H](CC(C)C)C(=O)OC(C)(C)C)C(=O)OC(C)(C)C
54. COc1ccc(NC(=O)CSc2nnc(CNC(=O)COc3ccc(Cl)cc3)o2)c(OC)c1
55. O=c1ccc2cc(S(=O)(=O)Nc3ccc(F)cc3)ccc2o1
56. CC(=O)c1ccc(OCC(O)CN2CCN(c3ccccn3)CC2)cc1 (configuration not stated)
assay / compound	49	50	51	52	53	54	55	56
ugtP null kill	4	3	7	35	.	11	3	0
PrP 5UTR inh	-21	-17	-20	-7	-21	5	-19	.
Mtb hypoxia rep	0	.	.	6	.	.	.	.
Mtb hypoxia rep growth	7	.	.	12	.	.	.	.
Bead autofluor	5010	2213	3331	3654	2775	4309	2435	5177
BJeLR lethal	7	.	-2	.	6	-6	-8	-1
RN4220 kill	-0.1	-3.3	0.3	-19	.	-2.7	3.2	1.2

57. Cc1ccc(S(=O)(=O)N(C)CC(=O)NCC(c2ccc(F)cc2)N2CCOCC2)cc1 (configuration not stated)
58. COc1ccc(CN(C(=O)CCC(=O)Nc2cc(C)on2)C(C(=O)NC(C)(C)C)c2cccc(OC)c2OC)cc1 (configuration not stated)
59. O=C(Nc1ccc(N2CCOCC2)cc1)c1cnsn1
60. O=C1Cc2ccccc2Sc2c(OCCN3CCCCC3)cccc21
61. CC(/C=N/NC(=O)CSc1nc(C)cc(C)n1)=C\c1ccccc1
62. CCN(CC)CCN(C(=O)c1ccc2c(c1)CCCC2)c1nc2ccc(OC)cc2s1
63. COC(=O)c1cnc(N2CCOCC2)nc1C(F)(F)F
64. CC(=O)N=c1sccn1CC(O)c1ccccc1 (configuration not stated)
65. Cc1ccc(S(=O)(=O)N(C)c2ccc(C)c([N+](=O)[O-])c2)cc1
assay / compound	57	58	59	60	61	62	63	64	65
ugtP null kill	2	6	.	7	.	1	13	2	-5
PrP 5UTR inh	-12	-11	68*	-2	-35	17	-20	-5	-9
Mtb hypoxia rep	5	4	.	8	.	-17	15	-3	-2
Mtb hypoxia rep growth	3	5	.	7	.	-13	10	-8	3
Bead autofluor	8189	2909	2889	7423	2583	4433	4264	3109	2029
BJeLR lethal	.	-1	1	15	-7	1	-16	-6	-4
RN4220 kill	1.8	0.9	.	-2.0	.	-5.4	9.4	1.9	7.3

Assay outcomes as filed in PubChem.
